Screening data: PubChem, several laboratories
eIF4H FP inh = inhibitors of RNA binding by human eIF4H; Q15056; eIF4H fluorescence polarization binding assay; inhibition, % at 35 µM; 0.94% of 290,000 active; AID 2012;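 active means 50% or more with normal probe brightness, or confirmed in later tests; inconclusive means above 50% with abnormal brightness, or retests that disagree; inactive means below 50% or failed in later tests; about a fifth of its hits are not listed in these tables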;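 further: calls also rest on retests at 20 µM and on dose response follow-up; 0% = protein and probe with vehicle and 100% = probe without protein; strong numbers were not always called active; many hits fall short of the cut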
MT1-MMP act inh = MT1-MMP (human) activation inhibition; GFP/RFP ratio change, % at 20 µM; HT1080 RFP-PRO-GFP cells, GFP/RFP ratio fluorescence, overnight; percent of plate control window, DMSO zero; 0.061% of 360,000 active; P50281; AID 651647;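 active means GFP/RFP ratio change of at least 30% with cell ATP level not reduced by more than half and red fluorescence within 50% of control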; further: strong numbers were not always called active
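Compound: 20 µM single dose, 1% DMSO / System: HT1080 RFP-PRO-GFP cells / Controls: DMSO and RFP-L50D-GFP cell wells / Read-out basis: GFP/RFP fluorescence ratio / Schedule: overnight compound exposure at 37 °C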
Rce1 inhib = yeast Ras-converting enzyme inhibition | Q03530 | yeast membranes, quenched prenylated peptide cleavage fluorescence | 0.27% of 290,000 active | calls only;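 active means fall in fluorescence gain of 50% or more versus controls, with final raw signal at or below 3038400; inconclusive means same 50% fall but final raw signal above 3038400; inactive means fall in fluorescence gain under 50%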;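 further: plate controls were neutral control wells for no effect and wells lacking membranes for full effect; tested at 10 µM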
Yeast UUG start = modulators of start codon recognition fidelity in yeast | S. cerevisiae UUG-firefly luciferase reporter, luminescence/redox ratio | activity score, % at 18.7 µM | 0.13% of 350,000 active | AID 602363;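 active means replicate mean at a twofold rise or more, about +100% in these data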;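 further: firefly luciferase made from a UUG start codon reports start codon fidelity; reporter light over untreated wells divided by growth signal over untreated wells; some hits fall short of that in this replicate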
HIV Env fusion = inhibitors of HIV Env-mediated cell fusion | 1.1% of 360,000 active | AID 651610 | HeLa-JRFL Env/CEM21 cell fusion, luciferase | inhibition, % at 12.3 µM;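 active means mean replicate inhibition score of at least 50 and every replicate individually at or above 50; inconclusive means only one of the two criteria met; inactive means mean below 50 and not all replicates reaching 50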;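 further: 0% = plate neutral controls and 100% = maraviroc near 300 nM; one replicate is shown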
CSC inhib = blocks cancer stem cells; AID 2717; inhibition, % at 7.5 µM; 1.1% of 300,000 active; cancer stem cell-like cells viability, luminescence;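 active means mean at 75% or more and at least half the replicates too; inconclusive means mean and replicates disagree; tested in HMLE shEcad cells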;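 further: 0% = median of negative and 100% = median of positive control wells; the first replicate is given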
PABP polyA inh = blocks human PABP binding to poly(A) RNA. fluorescence polarization. P11940. inhibition, % at 35 µM. 1% of 290,000 active;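 active means 50% or more with normal probe brightness, or confirmed in later tests; inconclusive means above 50% with abnormal brightness, or retests that disagree; inactive means below 50% or failed in later tests; about a fifth of its hits are not listed in these tables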;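 further: calls also rest on retests at 20 µM and on dose response follow-up; controls were probe without protein and protein plus probe with vehicle; some compounds called inactive have numbers as strong as hits; many hits fall short of the cut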
Target sequence (P11940 whole entry, looked up): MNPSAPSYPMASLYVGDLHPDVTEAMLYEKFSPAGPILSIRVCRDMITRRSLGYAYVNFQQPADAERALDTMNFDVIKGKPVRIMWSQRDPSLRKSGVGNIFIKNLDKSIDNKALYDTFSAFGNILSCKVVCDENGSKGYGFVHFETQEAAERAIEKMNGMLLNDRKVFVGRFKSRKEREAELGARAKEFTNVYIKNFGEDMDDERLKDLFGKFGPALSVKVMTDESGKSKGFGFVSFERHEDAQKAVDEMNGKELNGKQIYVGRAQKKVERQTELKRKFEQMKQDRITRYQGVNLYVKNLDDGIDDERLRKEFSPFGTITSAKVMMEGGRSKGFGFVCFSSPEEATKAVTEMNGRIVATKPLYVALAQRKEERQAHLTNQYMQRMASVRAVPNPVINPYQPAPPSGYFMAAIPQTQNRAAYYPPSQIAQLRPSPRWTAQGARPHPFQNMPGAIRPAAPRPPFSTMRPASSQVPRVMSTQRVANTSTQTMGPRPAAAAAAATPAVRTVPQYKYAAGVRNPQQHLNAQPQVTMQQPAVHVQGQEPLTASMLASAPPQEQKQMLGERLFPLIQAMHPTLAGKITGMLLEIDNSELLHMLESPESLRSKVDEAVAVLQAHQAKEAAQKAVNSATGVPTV
eIF4H FP inh retest = recorded beside eIF4H FP inh, whose call it bears; inhibition, %; compound at 20 µM; confirmation average;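 mean of two retest wells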
PABP polyA inh retest = also measured in PABP polyA inh; calls as there; inhibition, %; compound at 20 µM; confirmation repeats;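 mean of two retest wells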
MT1-MMP act inh RFP = further read-out of MT1-MMP act inh, marked with its call; RFP signal change, %; measured here: RFP expression control read;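 0 = vehicle wells; hits needed this value within 50% of zero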
* = called active by the depositor; i = inactive; ? = inconclusive; . = no result given. The list is partial. The share of hits here may be higher or lower than overall.

SMILES	eIF4H FP inh	MT1-MMP act inh	MT1-MMP act inh RFP	Rce1 inhib	Yeast UUG start	HIV Env fusion	CSC inhib	PABP polyA inh	others
OCCC1CN(C2CCC2)CCN1Cc1ccc(F)c(F)c1 (centres undefined)	5	5	-2	i	-9	5	-5	-6
CC(=O)N1CCCc2cc(S(=O)(=O)N3CCCC(C(=O)N4CCN(c5cccc(Cl)c5)CC4)C3)ccc21 (centres undefined)	-9	-2	-35	i	5	24	22	2
CSCCC(NC(=O)c1ccccc1Cl)C(=O)N1CCCC(C)C1 (centres undefined)	.	-4	2	.	-10	1	.	.
Cc1ccc(S(=O)(=O)N(C)CCCC(=O)Nc2cccc3ccccc23)cc1	-4	-10	-13	i	-8	19	18	31
O=C(NCCCN1CCOCC1)c1ccc(Cl)cc1Cl	1	-3	-1	i	-2	8	7	8
CC(=O)Nc1sc(NC(=O)c2ccc(C)cc2)nc1-c1cccs1	-6	8	1	i	4	-2	2	-4
CCCOc1ccc(C(=O)CCC(=O)OCC(=O)N2CCN(S(=O)(=O)c3ccc(C)cc3C)CC2)cc1	.	3	5	.	-14	8	.	.
O=C(NNC(=O)c1ccccc1Cl)c1ccco1	-7	0	-2	i	.	-55	7	10
C/C(CC(=O)Nc1cc(C)cc(C)c1)=N\NC(=O)c1ccccn1	7	-3	3	i	.	.	-8	-3
CCCNCC(O)Cn1c2ccccc2n2c(=O)cc(C)c(C#N)c12 (centres undefined)	-2	-2	0	i	-7	-153	0	10
Clc1ccc(SCCN2CCNCC2)cc1	0	1	2	.	.	30	10	4
COc1ccc(-c2csc(NC(=O)COC(=O)c3ccco3)n2)cc1	-11	0	-1	i	-12	-86	-4	0
COc1ccc(-c2ccc(SCC(=O)Nc3cc(C)on3)nn2)cc1OC	-12	5	0	i	-12	-19	-14	-2
CCOc1ccc2nc(NC(=O)CS(=O)(=O)c3ccc(C)cc3)sc2c1	2	-6	-2	i	-19	-165	-1	-15
COc1cc2c(cc1OC)C(Cc1ccc(O)cc1)N(C)CC2 (centres undefined)	-7	3	9	i	1	.	.	-7
COc1ccc(C(=O)NNC(=S)NC(=O)c2ccc(OC)cc2)cc1	18	5	-2	i	-40	20	2	5
COc1ccc([C@H]2C(C(=O)O)=C[C@@H](C(C)(C)C)N2S(=O)(=O)c2ccccc2)cc1	.	2	5	.	-8	8	5	.
CCCC(=O)Nc1ccccc1-c1nnn(CC(=O)Nc2ccc(OCC)cc2)n1	0	4	1	i	-3	-15	0	8
COc1cc(C(=O)COC(=O)c2ccc([N+](=O)[O-])o2)cc(OC)c1OC	.	-1	-1	.	2	-4	5	.
COc1ccc(OC(C)C(=O)N2CCOCC2)cc1 (centres undefined)	2	6	7	i	-5	-19	1	-7
O=C1c2ccccc2C(Nc2ccc(-c3nc4ccccc4[nH]3)cc2)N1Cc1ccco1 (centres undefined)	-9	2	-11	i	-11	-3	10	-4
CCC(=O)NNc1cc(=O)c2c(=O)n(C)c(=O)n(C)c2[nH]1	-5	-2	1	i	.	.	1	-2
O=C1NC(Cc2ccc(O)cc2)c2nc3ccc(Br)cc3c(=O)n2-c2cc3ccccc3cc21 (centres undefined)	.	-22	-19	.	-6	-344	.	.
C=C(C)COc1ccc(-c2ncncc2-c2ccc(Cl)cc2)c(O)c1	-8	-2	0	i	-12	4	22	6
O=C(Nc1ccc(S(=O)(=O)N2CCCC2)cc1)c1cccnc1Cl	.	-4	-1	i	.	-12	-9	.
Cc1cc(F)ccc1-c1cc(C(=O)NCc2ccco2)[nH]n1	.	-1	2	.	-14	4	.	.
S=C(N/N=C1\CCc2ccccc21)NC1CCCCC1	-1	0	-4	i	.	-15	8	57	eIF4H FP inh retest=-8;PABP polyA inh retest=5
Cc1cc(F)ccc1S(=O)(=O)N(C(=O)c1ccncc1)c1ccc(OC(=O)c2ccncc2)cc1	-4	7	0	i	-4	4	-6	-2
COCc1c(CCl)cnc(C)c1O	-9	0	6	i	.	4	-22	10
O=c1c2cn[nH]c2nc(SCc2c(F)cccc2F)n1-c1ccc(Cl)cc1	9	-6	-3	i	.	-12	52	-12
O=c1c2c(nc3cc(-c4ccc(F)cc4)[nH]n13)CCCC2	-4	2	-6	i	-14	.	2	8
Cc1cc(NS(=O)(=O)c2ccc(NC(=O)c3ccc(Cl)nc3)cc2)nc(C)n1	.	0	2	.	-10	6	.	.
CCOc1ccc(NC(=O)N(C2CCCC2)C2CCN(C(C)=O)CC2)cc1	2	-3	-4	i	.	-14	6	-13
COc1ccc(Cc2nnc(NC(=O)Cn3cnc4c3c(=O)n(C)c(=O)n4C)s2)cc1	-11	2	7	i	-10	18	-1	2
CCN1CCN(c2ccc(S(=O)(=O)N3CCCCC3)cc2NC(=O)/C=C/c2ccc(F)cc2)CC1	.	-3	1	i	12	7	-3	.
Cc1ccc2cc(CN(C(=O)c3ccncc3)C(C)C)c(=O)[nH]c2c1	22	-7	0	i	-10	.	1	25
O=C(COC(=O)/C=C/c1cccc(Br)c1)NCc1ccco1	.	2	3	i	-16	2	-6	.
CCOc1ccc(-c2nc(N)ncc2Oc2ccc(OC)cc2)c(O)c1	-4	-1	0	i	-24	6	-1	2
O=C(N/N=C/c1sc(N2CCOCC2)nc1-c1ccccc1)c1ccccc1O	4	9	-22	i	-20	6	11	-3
Cc1ccc(NC(=O)CCc2ccc(C)o2)c(C)c1	.	1	2	i	.	-4	9	.
Cc1cccc(OCC(O)Cn2c(N3CCCCC3)nc3c2c(=O)[nH]c(=O)n3C)c1 (centres undefined)	-14	-10	-3	i	-15	5	-19	-7
CC1=NNC(=O)C1C(c1ccc(F)cc1)C(C#N)C#N (centres undefined)	.	2	7	i	.	.	13	.
Cc1ccc2[nH]c(=O)c(CN(Cc3cccs3)C(=S)NCC3CCCO3)cc2c1 (centres undefined)	-11	-5	-4	i	-13	-4	.	0
CN(Cc1ccccc1)C(=O)Cn1c(=O)oc2cc(S(=O)(=O)N3CCCC3)ccc21	4	-2	1	i	-20	-5	8	5
C=CCCN(Cc1ccccc1)S(=O)(=O)c1cc(Br)ccc1Br	.	0	-6	.	-10	25	43	.
CCN(C(=S)Nc1cccnc1)c1ccccc1	1	4	6	i	-10	-8	-9	-2
CCC1CCc2sc(C(=O)NCC(c3ccccc3OC)N3CCCC3)cc2C1 (centres undefined)	.	3	-4	.	-3	4	-9	.
Cc1ccc(N2C(=O)N(CC(=O)Nc3ccc(F)c(F)c3)C(=O)C2C)cc1 (centres undefined)	.	4	-5	i	-8	.	-4	.
CCOC(=O)c1ccc(NC(=O)CNC(=O)C23CC4CC(CC(C4)C2)C3)cc1	4	7	-1	i	-13	23	.	-10
O=C(Nc1cccc2ncccc12)c1cc([N+](=O)[O-])ccc1Cl	4	-14	-12	i	-12	0	.	-10
COc1ccccc1Nc1nc(Cl)c(C=O)s1	52	-23	2	i	-8	-14	4	-15	eIF4H FP inh retest=-4;PABP polyA inh retest=1
O=C(NCc1ccccc1Cl)C1CCN(S(=O)(=O)N2CCOCC2)CC1	-1	-2	1	i	-18	4	-5	10
Cc1cccn2c(=O)c(/C=N/O)c(N3CCCCC3)nc12	1	-4	-5	i	-16	.	-12	-6
O=C(NNC(=O)c1cc2ccccc2cc1O)Nc1ccc(F)cc1F	6	-3	0	i	-16	9	1	-4
CCCn1c(COc2ccccc2)nc2ccccc21	-1	-2	-1	i	-21	-21	-6	-2
Cc1ccc2c(COC(=O)c3ccccc3Br)cc(=O)oc2c1	-3	2	-1	i	-15	-54	3	4
CCc1ccc(C(=O)NNC(=O)c2c(CC)noc2C)cc1	.	-5	2	i	15	-29	32	.
O=C(O)Cn1nnnc1SCC(=O)Nc1ccc(F)cc1F	-14	2	3	i	-15	-73	-9	5
O=C(COC(=O)CCC(=O)c1ccc(F)cc1)Nc1cccc(S(=O)(=O)N2CCOCC2)c1	-2	-2	2	i	-3	-8	-14	-18
COc1ccc(NC(=O)CCN2CCC(C)CC2)cc1	-2	0	0	i	-18	-17	-12	6

Later entries.
SMILES	eIF4H FP inh	MT1-MMP act inh	MT1-MMP act inh RFP	Rce1 inhib	Yeast UUG start	HIV Env fusion	CSC inhib	PABP polyA inh	others
Cc1ccc(C)c(C(O)c2ncc(-c3ccc(Cl)cc3)[nH]2)c1 (centres undefined)	.	4	-1	.	-21	-9	.	.
N#Cc1nc(-c2cccs2)oc1N1CCN(c2ccccc2)CC1	-1	0	5	?	5	-67	.	-6
Nc1nc2c(ncn2[C@@H]2O[C@H](CNCc3ccc4ncccc4c3)[C@@H](O)[C@H]2O)c(=O)[nH]1	.	3	7	.	-8	-14	.	.
O=C(COC(=O)CCc1nc2ccccc2c(=O)[nH]1)Nc1ccccc1	.	-3	-2	.	-2	.	-17	.
CCOC(=O)CCCNC(=O)CSc1nc2ccc(OCC)cc2[nH]1	5	5	7	i	.	-3	.	0
O=C(CCNC(=O)c1ccccc1Cl)Nc1ccccc1N1CCCC1	-2	0	0	i	-4	4	-2	-19
Cc1ccc(NC(=O)C(=O)NCCCN2CCOCC2)c(C)c1	-7	4	5	i	.	-13	-3	-1
CCOc1ccc(NC(=O)CS(=O)CC(=O)N(CC(=O)NC(C)(C)C)C2CCCC2)cc1 (centres undefined)	3	0	0	i	-9	1	-4	-2
O=[N+]([O-])c1cccc(/C=C2\CCc3cnn(C4CCS(=O)(=O)C4)c32)c1 (centres undefined)	.	-5	-5	.	-17	-7	.	.
Cc1ccc(C)c(S(=O)(=O)N(C)C2(C)CCS(=O)(=O)C2)c1 (centres undefined)	.	1	4	i	-22	5	-4	.
COc1ccc2[nH]c(C)c(CCNC(=S)Nc3ccccc3C)c2c1	1	7	-1	i	-6	-11	-3	115	eIF4H FP inh retest=2;PABP polyA inh retest=0
CC(=O)NNC(=O)CCC(=O)Nc1ccccc1	-4	-1	0	i	-9	-39	-3	-2
COC(=O)C1CN(C(=O)C(C)Oc2ccc(C)c(C)c2)c2ccccc2O1 (centres undefined)	2	-2	3	i	-6	2	-16	3
COc1cc(OC)cc(C(=O)NCCN2CCOCC2)c1	1	1	2	i	-4	.	-6	-3
O=C(CCn1c(=S)[nH]c2ccccc2c1=O)NCCc1ccc(Cl)cc1	-25	0	-1	i	.	6	13	2
CC(C)c1ccccc1NC(=O)C1C2C=CC(C2)C1C(=O)O (centres undefined)	-2	0	2	i	18	-6	-5	-3
Cc1ccc(N(C(=O)c2snc(C(N)=O)c2N)C(C(=O)NC2CCCC2)c2ccco2)cc1 (centres undefined)	-4	2	-4	i	-8	18	.	9
CSc1ccc(S(=O)(=O)NCC(=O)OCC(=O)N2CCCC2=O)cc1[N+](=O)[O-]	.	-1	3	i	-11	-1	-11	.
CC(=N\NC(=O)c1ccccc1)/C(=N/O)C(=O)Nc1ccccc1	-14	5	5	i	-17	-6	-8	-5
CCCn1nc2cc(C(=O)NCc3ccc(OC(F)(F)F)cc3)ccc2c1OCC	8	7	3	i	-16	.	1	-8
CC(C)(C)OC(=O)C[C@@H]1C/C=C\C[C@@H](CC(=O)NCCO)C(=O)N2CCC[C@H]2COC1=O	.	1	1	.	-3	-21	-15	.
